# rRNA inh HTS = selective bacterial rRNA inhibition in E. coli | E. coli WT GFP vs humanized-ribosome RFP mutants, fluorescence, 24 h; stronger effect = lower value; DMSO median 0, no signal -100 | GFP signal change (wild-type ribosome), % (concentration not given with the values) | hit rate 1.6% among 350,000;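 active means significant combined selectivity score with lowered wild-type GFP, culture density cut under 30%, mutant RFP and density less affected; inactive means any of these conditions unmet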; further: one replicate is shown; some compounds called inactive have numbers as strong as hits
# FGF22 binding = shifts melting point of recombinant human FGF22; Q9HCT0; calls only at 9.99 µM; recombinant FGF22 thermal shift, SYPRO orange fluorescence; percent of sucrose octasulfate shift, DMSO zero; hit rate 1.5% among 340,000;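 active means melting point raised past a set limit in the mean and every replicate; inconclusive means no clear call; three in four hits are not shown here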
# Beta2AR agonist = activates human beta-2 adrenergic receptor causing internalization; P07550; Am2.2-beta2AR cells, FAP receptor internalization, flow cytometry; reference of the scale not given here; response, % (test concentration not listed); hit rate 0.43% among 340,000;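 active means response above a set limit, near 3 SD of response in nonfluorescent compounds, cut at about 42% in these data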;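 further: stock transfer was 100 nL into about 11 µL; a reference agonist was the positive control; negative values mostly stem from fluorescent compounds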
# Target sequence (P07550 whole entry, looked up): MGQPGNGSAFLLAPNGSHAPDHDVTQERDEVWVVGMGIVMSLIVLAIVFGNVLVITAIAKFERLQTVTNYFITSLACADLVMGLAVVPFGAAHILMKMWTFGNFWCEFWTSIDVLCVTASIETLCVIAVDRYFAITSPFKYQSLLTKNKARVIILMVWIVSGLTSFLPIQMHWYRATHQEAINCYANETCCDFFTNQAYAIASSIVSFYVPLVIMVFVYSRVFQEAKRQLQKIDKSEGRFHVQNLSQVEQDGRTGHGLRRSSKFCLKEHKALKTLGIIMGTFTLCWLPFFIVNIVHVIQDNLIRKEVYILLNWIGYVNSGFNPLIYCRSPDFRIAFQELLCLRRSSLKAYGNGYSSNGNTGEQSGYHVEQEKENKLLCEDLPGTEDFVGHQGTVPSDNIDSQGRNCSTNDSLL
# HNF4A DNA FP = change in binding of human HNF4 alpha to DNA; HNF4a-FITC DNA binding, fluorescence polarization, 1 h; activity change, % at 10 µM; hit rate 0.3% among 360,000; AID 1224865; in the data active means activity change above about 30%, passing the limit was not always enough;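 further: controls were the assay level and a saturating level of protein; the project sought stronger binding though the title names inhibitors; some compounds called inactive have numbers as strong as hits; positive values seem to mean higher polarization but the record does not say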
# UCH37 inh = blocks the human deubiquitinase UCH37. AID 588478. Q9Y5K5. hit rate 0.33% among 330,000. inhibition, % (no concentration beside the values). purified proteasome/UCH37, Ub-AMC cleavage fluorescence;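 active means mean of two replicates above 20%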;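 further: 0% = compound-free wells with enzyme and 100% = wells lacking proteasome; stock transfer was 100 nL into about 20 µL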
# Target sequence (Q9Y5K5 whole entry, looked up): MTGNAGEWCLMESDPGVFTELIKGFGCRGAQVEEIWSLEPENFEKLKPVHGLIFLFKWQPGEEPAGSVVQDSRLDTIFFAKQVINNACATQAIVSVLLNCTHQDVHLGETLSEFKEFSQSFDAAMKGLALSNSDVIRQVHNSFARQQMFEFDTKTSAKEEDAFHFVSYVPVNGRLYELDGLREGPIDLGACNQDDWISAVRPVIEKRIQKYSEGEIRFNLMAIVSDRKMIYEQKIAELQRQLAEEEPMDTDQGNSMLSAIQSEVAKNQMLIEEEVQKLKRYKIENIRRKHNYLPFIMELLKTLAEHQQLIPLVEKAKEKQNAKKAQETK
#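 Schedule: 30 min plus 25 min, room temperature / Material: human UCH37 within purified proteasomes / Technique: AMC fluorescence intensity at 355/460 nm / Buffer or medium: pH 7.4 Tris-HCl (50 mM) with ovalbumin, ATP-MgCl2, DTT / Controls: wells without proteasome as full block, compound-free enzyme plus substrate as uninhibited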
# ALR H2O2 inh = blocks human ALR sulfhydryl oxidase activity. P55789. purified ALR, DTT oxidation, H2O2 HRP-luminol luminescence. inhibition, % (test concentration not listed). hit rate 3.8% among 290,000;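 active means mean and each replicate at 75% or more; inconclusive means only one of the two met; inactive means neither met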;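 further: stock transfer was 7.5 nL into about 7.5 µL; 0% = neutral wells and 100% = wells with inactivated enzyme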
# Target sequence (P55789 whole entry, looked up): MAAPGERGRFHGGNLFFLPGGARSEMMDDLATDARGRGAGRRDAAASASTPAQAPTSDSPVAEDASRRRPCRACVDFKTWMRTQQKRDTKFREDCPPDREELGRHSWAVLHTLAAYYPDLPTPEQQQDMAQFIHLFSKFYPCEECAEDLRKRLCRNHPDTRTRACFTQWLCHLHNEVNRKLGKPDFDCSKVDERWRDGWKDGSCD
# Ecoli growth = inhibitors of Escherichia coli growth. OD600, 23 h; stronger effect = lower value. OD600 absorbance (concentration not given with the values). hit rate 0.21% among 330,000. AID 1053175;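 active means OD600 absorbance below the run mean of sample wells minus 3.6 SD, in any replicate, cut at about 0.56 in these data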;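 further: stock transfer was 300 nL into about 60 µL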
# rRNA inh HTS OD600 = second read-out of rRNA inh HTS, no call of its own (marks repeat the call); OD600 change, %; measured here: OD600 growth;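 optical density of the mix in the first replicate; 0 = DMSO median and -100 = no signal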
# rRNA inh HTS RFP = second read-out of rRNA inh HTS, no call of its own (marks repeat the call); RFP signal change, %; measured here: RFP humanized mutant strains;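 first replicate; 0 = DMSO median and -100 = no signal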
# * = called active by the depositor; i = inactive; ? = inconclusive; / = not tested or not shown. The list is partial; the hit share may differ from the screen's.
HNF4A DNA FP	Beta2AR agonist	rRNA inh HTS RFP	Ecoli growth	rRNA inh HTS	ALR H2O2 inh	UCH37 inh	FGF22 binding	rRNA inh HTS OD600	Structure
-2.6	-5	-2.6	0.71	5	15	3.7	i	9	CCn1c(=O)cc(N2CCN(C(=O)c3ccco3)CC2)[nH]c1=O
6.3	-6	2.6	/	29	/	/	i	15	C[C@@H]1ON(C)[C@H]2C[C@H]3c4cc(N5CCN(C)CC5)ccc4CCN3C(=O)[C@@H]12
-1.7	-1	-8.0	0.68	-32	/	-0.2	i	-39	CCOC(=O)C1=CN(Cc2cccc(F)c2)S(=O)(=O)NC1c1ccccc1 (configuration not stated)
-4.0	0	25	0.63	19	47	-0.5	i	7	COc1ccc([N+](=O)[O-])cc1NCc1cccnc1
-3.1	-24	1.0	0.73	-9	12	-195	i	-13	Cc1ccc2nc(-c3ccncc3)c(NC3CCCCC3)n2c1
-3.4	1	-0.9	0.7	1	6	3.6	i	15	CCN(CC(=O)NC(=O)Nc1ccccc1F)Cc1ccccc1
0.8	1	/	0.72	/	5	2.4	/	/	CC(C)CCOP(=O)(c1ccc(N(C)C)cc1)C(O)c1ccccc1F (configuration not stated)
2.0	-6	-1.1	0.58	3	-5	4.5	i	10	Clc1ccc(-c2nnc(-c3cccnc3)o2)cc1
1.7	0	/	0.76	/	9	1.8	i	/	OCCNCCO
-6.8	-76	/	/	/	?	/	i	/	O=C1CCCC2=C1Sc1ccccc1N2
1.6	-3	-14	0.72	-52	-5	0.8	i	-77	Cn1cc([N+](=O)[O-])c(C(=O)N2CCN(Cc3ccc4c(c3)OCO4)CC2)n1
1.0	19	/	0.7	/	43	-58	/	/	CCOC(=O)/C(C#N)=C1/C=C(C)NC(c2ccccc2O)=N1
2.5	8	-1.2	0.7	-11	1	-1.4	/	-11	CC(=O)c1c(O)c2ccccc2n(C(C)C)c1=O
2.0	1	-1.5	0.67	10	-3	-0.1	i	14	CC(C)NC(=O)c1ccc(CN2CCc3ccccc3C2)cc1
1.8	3	1.4	0.65	9	-2	1.7	i	9	COc1ccccc1NC(=O)C1CCN(S(C)(=O)=O)CC1
3.8	3	/	0.75	/	-31	-3.7	/	/	COC(=O)Cc1c(C)c2ccc(OCC(=O)NCc3ccc4c(c3)OCO4)cc2oc1=O
4.0	-6	-0.7	0.74	4	6	5.0	i	7	CCN1CCN(C(c2cccs2)C(C)NC(=O)c2ccccc2OC)CC1 (configuration not stated)
2.5	-8	/	0.74	/	0	0.3	/	/	O=C(CNC(=O)c1ccco1)NCC(=O)OCc1ccc(Cl)cc1
4.6	-13	3.7	0.67	1	1	1.9	i	9	Cc1ccc(NC(=O)c2cccs2)cc1NC(=O)c1cccnc1
1.1	-5	0.1	0.68	4	-7	2.8	i	10	Cc1nn(C(C)(C)C)c(NC(=O)c2ccc(Cl)cc2)c1Br
4.1	-12	/	0.67	/	/	-40	/	/	Cc1c(/C=C/C(=O)c2ccc(Cl)s2)cnn1C
-3.3	-2	-2.4	0.64	18	-72	-149	i	11	CCOC(=O)c1c(NC(=O)c2ccccc2)sc2c1CCc1ccccc1-2
-37	-5	/	0.65	/	-2	0.5	/	/	CCCC1Nc2ccc(C(=O)O)cc2C2C=CCC12 (configuration not stated)
-2.9	4	-4.3	0.65	0	-1	1.1	i	-6	COc1ccccc1NC(=O)COc1ccccc1

# Ordered by heavy-atom count (smallest number first): part of the list above.
HNF4A DNA FP	Beta2AR agonist	rRNA inh HTS RFP	Ecoli growth	rRNA inh HTS	ALR H2O2 inh	UCH37 inh	FGF22 binding	rRNA inh HTS OD600	Structure
-6.8	-76	/	/	/	?	/	i	/	O=C1CCCC2=C1Sc1ccccc1N2
4.1	-12	/	0.67	/	/	-40	/	/	Cc1c(/C=C/C(=O)c2ccc(Cl)s2)cnn1C
2.5	8	-1.2	0.7	-11	1	-1.4	/	-11	CC(=O)c1c(O)c2ccccc2n(C(C)C)c1=O
-37	-5	/	0.65	/	-2	0.5	/	/	CCCC1Nc2ccc(C(=O)O)cc2C2C=CCC12 (configuration not stated)
1.1	-5	0.1	0.68	4	-7	2.8	i	10	Cc1nn(C(C)(C)C)c(NC(=O)c2ccc(Cl)cc2)c1Br
1.0	19	/	0.7	/	43	-58	/	/	CCOC(=O)/C(C#N)=C1/C=C(C)NC(c2ccccc2O)=N1
-3.1	-24	1.0	0.73	-9	12	-195	i	-13	Cc1ccc2nc(-c3ccncc3)c(NC3CCCCC3)n2c1
-3.4	1	-0.9	0.7	1	6	3.6	i	15	CCN(CC(=O)NC(=O)Nc1ccccc1F)Cc1ccccc1
0.8	1	/	0.72	/	5	2.4	/	/	CC(C)CCOP(=O)(c1ccc(N(C)C)cc1)C(O)c1ccccc1F (configuration not stated)
-3.3	-2	-2.4	0.64	18	-72	-149	i	11	CCOC(=O)c1c(NC(=O)c2ccccc2)sc2c1CCc1ccccc1-2

# Later entries.
HNF4A DNA FP	Beta2AR agonist	rRNA inh HTS RFP	Ecoli growth	rRNA inh HTS	ALR H2O2 inh	UCH37 inh	FGF22 binding	rRNA inh HTS OD600	Structure
/	/	0.2	0.64	22	-4	1.3	i	9	O=C(CN1CCC(N2CCCCC2)CC1)N1CCOCC1
4.7	8	1.6	0.68	1	-1	5.5	i	13	Cc1ccc(-n2c(C)cc(C(=O)COC(=O)c3ccc[nH]c3=O)c2C)cc1C
0.7	9	/	0.68	/	4	4.7	/	/	CN1C(=S)SC(N(O)C(=O)Nc2ccc(Cl)c(Cl)c2)C1(C)C (configuration not stated)
3.1	/	-3.5	/	2	/	/	i	-19	COc1ccc(-c2ccc(C(=O)Nc3ccc(OC)nc3)c3occc23)c(C)c1
-1.7	5	/	0.75	/	/	6.4	/	/	COc1ccc(C2C(C#N)=C(N)Oc3c2c(C)nn3-c2ccccc2)cc1Cn1nc(C)c([N+](=O)[O-])c1C (configuration not stated)
-0.6	-5	/	0.67	/	-5	3.8	/	/	Cc1ccc(S(=O)(=O)n2cnc3ccccc32)c(C)c1
-6.2	0	8.4	0.64	9	0	2.1	i	8	Cc1ccc(C)c(OCC(=O)NCC(C)(C)N2CCOCC2)c1
4.4	-5	/	0.72	/	-14	-1.7	/	/	Nn1c(COc2cccc(Cl)c2)nc2ccccc2c1=O
-0.3	-6	-2.1	0.68	7	/	5.7	i	5	COCCn1nnnc1C(c1ccc(OC)cc1)N1CCN(C(=O)c2ccco2)CC1 (configuration not stated)
6.0	4	6.4	0.75	9	-9	3.0	i	11	COc1ccc(S(=O)(=O)N2CCOCC2)cc1NC(=O)Cc1coc2cc(C)c(C)cc12
-3.0	6	/	0.69	/	5	3.7	i	/	O=C(O)C1CC=CCC1C(=O)Nc1ccccc1C(=O)N1CCN(c2ccc(F)cc2)CC1 (configuration not stated)
146	-100	20	0.74	-36	-42	11	i	11	CN1CCS/C1=C/C=C1/SC(=S)N(Cc2ccccc2)C1=O
9.7	4	/	0.71	/	-3	1.6	/	/	O=C(NCCN1CCCCCC1)c1ccc(N2CCCC2=O)cc1
1.4	-8	0.0	0.66	4	1	4.4	i	16	CCCc1nc2ccccc2c(=O)n1CC(=O)c1ccc(F)cc1
-1.8	1	/	0.67	/	3	7.3	/	/	CC1(C)CC(=O)c2c(O)cc(O)cc2O1
-1.9	27	-1.6	/	-4	-1	/	i	-2	CCOc1ccc(/C=N/NC(=S)NC2CC3CC2C2C=CCC32)cc1 (configuration not stated)
4.8	-6	4.3	0.58	-15	72	4.4	i	-20	CC(C)Cc1ccc(C2=CSC3=NCCN23)cc1
2.1	4	0.0	0.64	-15	14	3.1	i	-25	Cc1ccc(S(=O)(=O)N2CCCC(C(=O)NNCC(=O)Nc3cc(F)ccc3F)C2)cc1 (configuration not stated)
6.2	10	/	0.78	/	6	3.8	/	/	COc1cccc(-c2nnc(SCC(=O)NCc3ccc4c(c3)OCO4)n2Cc2ccco2)c1
-2.9	-5	/	0.62	/	1	0.9	/	/	Cc1c(C(=O)O)oc2ccc(S(=O)(=O)NCc3ccccc3)cc12
0.1	4	-1.0	0.73	-8	-8	9.4	i	-13	COc1ccc(NC(=O)c2cc(S(=O)(=O)N3CCCCC3)c[nH]2)c(OC)c1
-6.0	0	/	0.74	/	/	-20	/	/	CCc1nn2cc(C(=O)c3cc(C)ccc3O)cnc2c1-c1ccc(F)cc1
-0.8	5	/	0.7	/	-4	4.0	/	/	CC(C)(C)NC(=O)Cn1c(SCC(=O)Nc2nccs2)nc2ccccc21
-1.8	-26	/	/	/	23	/	/	/	C/C(=N\Nc1nnc2c3ccccc3n(C)c2n1)c1ccc(C)o1
2.9	2	-2.4	0.68	-5	-2	1.2	i	-21	CC(C)c1cccc(C(C)C)c1OC(=O)NC(=O)c1c(F)cccc1F
-1.0	3	/	0.69	/	75	3.8	/	/	CCn1cc(Br)c(C(=O)N2CCN(c3ccccc3)CC2)n1
-1.1	0	1.6	0.68	14	75	2.0	i	11	N/C(=N\NS(=O)(=O)c1ccccc1C(F)(F)F)c1ccccn1
1.5	1	0.9	0.68	16	-15	3.6	/	5	Cc1nc(C(=O)N(C)C)nn1-c1ccc([N+](=O)[O-])cc1
1.9	0	/	0.7	/	2	3.9	/	/	Cc1[nH]nc(SCC(=O)N2CCCCC2)c1[N+](=O)[O-]
0.0	-3	-0.1	0.7	6	-1	1.7	i	12	Cc1nn(C(C)C(=O)N2CCOCC2)c(=O)c2nn(-c3ccccc3)c(C)c12 (configuration not stated)
1.1	-1	0.6	0.72	7	2	4.7	i	3	CCC(CC)C(=O)Nc1cc(=O)n(C)c(=O)n1C
1.6	/	0.9	/	-19	/	/	i	-22	COC(=O)C1=CN(c2ccc(F)cc2)C(N)=C(C#N)C1c1ccc(-c2ccccc2)cc1 (configuration not stated)
/	/	/	0.69	/	-15	-85	/	/	COc1ccc(C2CC(=O)c3cnc(N4CCc5ccccc54)nc3C2)c(OC)c1 (configuration not stated)
-2.3	4	/	0.7	/	0	2.5	/	/	O=C(COC(=O)c1c2c(nc3ccccc13)CCCC2)c1cccs1
4.6	-18	0.4	0.75	4	-6	1.1	i	-1	C#CC(C)(C)NC(=O)CSc1nc2c(c(=O)n(C)c(=O)n2C)n1CCCC
-0.9	17	/	0.69	/	-5	1.3	/	/	Cc1ccc(S(=O)(=O)Cn2nnnc2C(c2ccc(F)cc2)N2CCCCC2)cc1 (configuration not stated)
-2.1	-1	-3.2*	0.69	-26*	-21	-1.5	i	-18*	CN(C)S(=O)(=O)c1cccc(NC(=O)c2n[nH]c(=O)c3ccccc23)c1
2.3	0	2.6	0.64	16	-14	0.3	i	10	COC(=O)CSc1nnc(-c2ccccn2)n1N
6.4	10	/	0.7	/	18	3.0	/	/	COc1ccc(CCNC(=O)c2cc(C(=O)c3cc(Cl)ccc3O)cn(CCc3ccc(OC)cc3)c2=O)cc1
0.0	/	-0.6	/	7	/	/	i	5	COc1ccc(C(O)c2ncc(-c3ccccc3)[nH]2)cc1F (configuration not stated)
-1.8	-2	9.0	0.72	-7	-9	6.4	i	-26	CCOC(=O)c1csc(NC(=O)C2CCCCC2)n1
0.5	-17	/	0.68	/	-8	1.5	/	/	COc1ccc(Cl)c(NC(=O)Cn2nnc(-c3ccccc3N)n2)c1
-4.2	-1	-0.1	0.7	-2	/	1.2	i	-11	CCCNC(=O)c1cc(-c2ccccc2)c(N2CCCCC2)s1
0.1	-3	-9.7	0.7	7	/	2.5	i	3	CNC(=S)NCCCc1ccccc1
